Menin MLL FP FL – displaces fluorescein MLL peptide from human menin; Fluorescence polarization, fluorescein-MLL peptide displacement from menin; FP activity change, % at 61.4 µM; 290,000 tested, under 10 active; inconclusive = falling polarisation curve, or a change in total fluorescence; inactive = total fluorescence flat and polarisation flat or rising; no compound was filed as active; the % refers to the polarisation; negative = inhibition;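 also: % of control where 0% means no effect; inhibitors lower the polarisation; unlabelled MLL peptide was the positive control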
D2 PAM – human D2 receptor positive allosteric modulation | P14416 | DiscoveRx D2 beta-arrestin cells, luminescence, 90 min; 100% = 57 uM dopamine signal | potentiation, % (test concentration not listed) | 360,000 compounds, 0.23% hits | AID 624464; active = potentiation of 50% or more; inconclusive = 30% to 50%; inactive = 30% or less;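 also: compound concentration not given in the record; tested on top of an EC20 dose of dopamine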
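PathHunter beta-arrestin assay in DiscoveRx D2 cells. Compounds were added with an EC20 of dopamine (50 nM final) for 90 min at 37 deg C. Luminescence was read 1 h after detection reagent, with 57 uM dopamine as the EC100 control.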
gsp antagonist – gsp mutant antagonism | gsp-mutant cells, cAMP HTRF, 30 min; control for the full effect not named in the record | Potency, µM (doses to about 76.9 µM), for the others: at the top dose activity change, negative = inhibition, hits mostly inhibitors | 340,000 compounds, 0.4% hits | AID 624288; active = falling curve of any shape with a large fitted effect; inconclusive = falling curve, mostly with a smaller effect; inactive = flat or rising curve; cell line not stated here;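 also: intracellular cAMP measured with PDE inhibitor Ro 20-1724 present during compound exposure; potency is read from the fitted curve at half-maximal effect; % is scaled to controls: 0 for no effect and ±100 for the full control effect; nearly all actives have a fitted effect of over 65% in size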
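G418-selected cells were plated in DMEM/10% FBS for 16-24 h at 37C, then treated with compounds plus the PDE inhibitor […] (300 uM solution added) for 30 min at 37C. Intracellular cAMP was measured by HTRF after 30 min lysis at room temperature.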
gsp ag – activates gsp, the McCune-Albright syndrome mutation; gsp mutant cells, cAMP HTRF, 30 min; control for the full effect not named in the record; 340,000 compounds, 0.13% hits; Potency, µM (highest dose often 76.9 µM), without a hit: top-dose activation (cAMP increase), usual class: activators; AID 624287; active = well fitted activation curve with a large enough effect; inconclusive = small, poorly fitted or top-dose-only effect, or another doubt; inactive = no such curve, though single readings can be large or run the other way; cell line not stated here;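 also: phosphodiesterase inhibitor Ro 20-1724 added with compounds to block cAMP breakdown; potency is read from the fitted curve at half-maximal effect; nearly all actives have a fitted effect of over 60% in size; about a fifth of the inactives were tested at one dose only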
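Cells stably selected in G418 were plated at 2000/well, grown 16-24 hr, then given compounds in DMSO with the PDE inhibitor […] (300 uM solution added) for 30 min at 37C; cAMP was read by HTRF.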
Sfp PPTase inh – inhibitors of Bacillus subtilis Sfp phosphopantetheinyl transferase; Q9F4F7; Biochemical Sfp PPTase activity, qHTS; Potency, µM, for inactives: max response, negative = inhibition, usual class: inhibitors; 310,000 compounds, 3.5% hits; AID 1490; active = well fitted inhibition curve with a large enough effect; inconclusive = small, poorly fitted or top-dose-only effect, or another doubt; inactive = no such curve, though single readings can be large or run the other way;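 also: the enzyme is Sfp with the accession as filed and its product quenches rhodamine fluorescence; potency is read from the fitted curve at half-maximal effect; 0% = enzyme reaction without inhibitor and -100% = no enzyme wells; top concentration of the series not given in the record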
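With Hepes-Na pH 7.6 buffer containing 10 mM MgCl2, Sfp (15 nM) modified BHQ-2-YbbR (12.5 uM) using rhodamine-CoA (5 uM). Two reads 30 minutes apart at 525/598 nm yielded each well's rate.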
TRPV1 PAM – enhances activation of the human vanilloid receptor TRPV1; Q8NER1; TRPV1-expressing cells, Fluo-8 calcium influx, capsaicin EC20 potentiation; host cell line not named in the record; control for the full effect not named in the record; potentiation, % at 8.33 µM; 320,000 compounds, 0.02% hits; AID 540277; active means potentiation above 80%; inconclusive means 30% to 80%; inactive means below 30%; also: 0% is about no effect
Target sequence (Q8NER1 whole entry, looked up): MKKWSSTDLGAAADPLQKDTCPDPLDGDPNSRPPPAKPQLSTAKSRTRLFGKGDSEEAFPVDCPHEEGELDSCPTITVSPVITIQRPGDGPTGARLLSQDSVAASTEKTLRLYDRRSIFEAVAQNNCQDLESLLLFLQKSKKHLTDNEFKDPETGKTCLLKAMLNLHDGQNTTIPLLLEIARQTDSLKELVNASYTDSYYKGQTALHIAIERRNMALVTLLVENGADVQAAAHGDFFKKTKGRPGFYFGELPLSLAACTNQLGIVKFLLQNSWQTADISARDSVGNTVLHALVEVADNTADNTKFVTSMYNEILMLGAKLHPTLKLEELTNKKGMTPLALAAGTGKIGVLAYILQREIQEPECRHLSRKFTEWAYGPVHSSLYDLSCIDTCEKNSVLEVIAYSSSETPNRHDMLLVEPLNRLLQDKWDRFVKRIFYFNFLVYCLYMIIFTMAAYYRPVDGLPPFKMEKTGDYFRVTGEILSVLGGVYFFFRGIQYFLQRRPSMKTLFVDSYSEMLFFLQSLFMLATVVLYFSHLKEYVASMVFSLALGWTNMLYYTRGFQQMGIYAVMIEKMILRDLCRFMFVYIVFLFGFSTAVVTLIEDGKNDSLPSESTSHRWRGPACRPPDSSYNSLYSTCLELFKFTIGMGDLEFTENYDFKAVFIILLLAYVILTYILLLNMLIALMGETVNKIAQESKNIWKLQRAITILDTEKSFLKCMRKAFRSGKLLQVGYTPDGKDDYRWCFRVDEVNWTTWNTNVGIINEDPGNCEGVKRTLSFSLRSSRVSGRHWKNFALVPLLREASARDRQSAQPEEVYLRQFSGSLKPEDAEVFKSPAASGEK
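Cells expressing TRPV1 were dye-loaded with Fluo-8 and read kinetically: 10 s baseline, 3 min after compound (agonist portion), then 2 min after EC20 capsaicin (allosteric enhancer portion). Calcium-bound dye fluorescence at 480/520 nm.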
ClpP mod – qHTS Assay for Activators of ClpP; ATP-dependent Clp protease proteolytic subunit (Bacillus subtilis (strain 168)), P80244; purified B. subtilis ClpP, FRET peptide cleavage, 20 min; Potency, µM (top dose mostly 57.5 µM), for the others: at the top dose activity change, negative = active; 340,000 compounds, 1.9% hits; AID 651965, 2013; active = well fitted falling curve with a large enough effect; inconclusive = small, poorly fitted or top-dose-only effect; inactive = no such curve, though single readings can be large or run the other way; also: potency is read from the fitted curve at half-maximal effect; the source files actives as falling curves though it sought activators and does not explain the sign; nearly all actives have a fitted effect of over 65% in size; many hits overshoot -100%
Target sequence (P80244 whole entry, looked up): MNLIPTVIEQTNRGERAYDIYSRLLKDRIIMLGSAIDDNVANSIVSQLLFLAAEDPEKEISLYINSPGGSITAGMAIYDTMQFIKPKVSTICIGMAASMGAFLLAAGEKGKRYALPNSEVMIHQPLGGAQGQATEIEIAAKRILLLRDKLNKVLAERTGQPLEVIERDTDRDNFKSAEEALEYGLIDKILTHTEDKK
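Purified B. subtilis ClpP, 10 microg/mL final in Tris/HCl pH8 with KCl, BSA, glycerol and Tween-20, cleaved an Abz/nitrotyrosine-quenched decapeptide. Fluorescence (ex 320, em 430) was read at 0 and 20 min at room temperature. Delta was normalized to 5.8 microM ADEP and DMSO/no-enzyme controls.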
Active calls of the source: *; ? = inconclusive; · = no result given; [ ] = another dose, or the depositor's remark.

SMILES	Menin MLL FP FL	D2 PAM	gsp antagonist	gsp ag	Sfp PPTase inh	TRPV1 PAM	ClpP mod
CC(C)C(=O)N1CCC(CN=CC2=C(O)CC(C)(C)CC2=O)CC1	-0.3	-1	-5%	20%	13%	-8	0.8%
Cc1c(Cl)cccc1NC(=O)CNCc1ccccc1F	0.4	-1	16%	?	18%	-25	2.1%
O=C(/C=C1\SC(=O)NC1=O)Nc1ccc(C(=O)O)cc1	3.1	-4	10%	17%	-13%	29	1.1%
Cc1c(Cc2ccccc2)c(=O)oc2cc(O)cc(O)c12	1.3	-9	-2%	?	-10%	2	·
COc1cc(CCC(=O)OCC(=O)Nc2c(F)cccc2F)cc(OC)c1OC	-3.7	-5	-3%	21%	8%	-1	·
CCOc1ccc(CNC(=O)CS(=O)(=O)Cc2nc(-c3ccc(OC)cc3)oc2C)cc1	0.6	2	3%	?	17%	20	-1.9%
COc1ccccc1N(CCC#N)C(=S)Nc1ccc(S(=O)(=O)N2CCOCC2)cc1	·	-1	-5%	14%	·	·	·
O=C(OC1CO[C@H]2O[C@@H]1[C@H](OC(=O)c1ccccc1)[C@H]2OC(=O)c1ccccc1)c1ccccc1 (stereo not given in full)	·	3	-4%	3%[15.4 µM]	·	·	-17%
CC1=C(C(=O)Nc2ccccc2)C(c2cc(CN3CCOCC3)cs2)C2=C(CCCC2=O)N1 (stereo not given)	-2.8	-4	0%	-5%[15.4 µM]	-2%	-1	·
Cc1ccc(-c2nc3ccccc3[nH]2)cn1	0.2	5	-18%	-33%	9%	-1	·
CC(=O)c1ccc(NC(=O)N2CCN(c3ccc(C)cc3)C(C)C2)cc1 (stereo not given)	-0.9	-12	-20%	2%	7%	2	-0.2%
Cc1cc(CN(C)C(=O)c2ccc(OC3CCN(S(=O)(=O)N(C)C)CC3)cc2)n[nH]1	·	-2	8%	-15%	12%	10	0.3%
O=C(Nc1ccc(Oc2ccsc2C(=O)O)cc1)c1ccccc1F	1.1	0	-7%	-27%	18%	-5	1.9%
COc1ccc([N+](=O)[O-])cc1NC(=O)C1CCCCC1C(=O)O (stereo not given)	-4.8	-7	-13%	-41%[inhibitor]	12%	-1	0.9%
Cc1ccc(NC(=O)CSc2nc3ncc(Cl)cc3[nH]2)c(C)c1	0.2	-8	-9%	?	9%	-4	-0.8%
Cn1c(=O)[nH]c(=O)c2c1nc(N1CCCCCC1)n2Cc1cccc2ccccc12	2.5	-5	-9%	-1%	3%	-9	0.7%
CCOC(=O)N1CCN(c2nc(N(c3ccccc3)c3ccccc3)nc(-n3ccnc3)n2)CC1	7.1	·	·	·	?	-14	·
Cn1c(CN2CCOCC2)nc2cc(NC(=O)c3ccc(F)cc3)ccc21	1.2	-21	-2%	?	4%	4	-6.6%
Cc1cc(-c2ccco2)n(CC(=O)O)n1	6.6	-4	9%	19%	?	-5	0.4%
Cc1ccc(C(=O)Nc2ccc(O)cc2C(=O)O)cc1C	2.1	5	-33%	-55%[inhibitor]	16%	-2	-1.3%
CCOc1ccc(NC(=S)NC23CC4CC(CC(C4)C2)C3)cc1	-1.0	-1	12%	-41%[inhibitor]	13%	-1	2.0%
O=C(CC1SC(N2CCCCC2)=NC1=O)Nc1cccc(C(=O)Nc2ncccc2O)c1 (stereo not given)	·	-8	-3%	30%[15.4 µM]	·	0	·
CCOc1ccc(CNC(=O)CCC(=O)n2ncc3ccc(Cl)cc32)cc1	8.4	2	3%	-31%[inhibitor]	-18%	-11	-1.7%
CCS(=O)(=O)N1CCC(C(=O)Oc2ccc(C)c(C)c2)CC1	5.8	11	-6%	-57%[inhibitor]	4%	-14	-0.3%
COc1cc2c(cc1NC(=O)COC(=O)/C=C/c1ccccc1)oc1ccccc12	-1.3	-18	-1%	9%	?	12	27%
Cc1cc(NC(=O)CSc2nc3c(c(=O)n2-c2ccccc2)SC(C)C3)no1 (stereo not given)	1.6	0	3%	-2%	-4%	0	2.1%
CN(CC(=O)Nc1ccc(F)c(F)c1F)C(=O)C1COc2ccccc2O1 (stereo not given)	·	4	1%	-67%[inhibitor]	·	·	-1.2%
NC(=O)CSc1nnc(-c2cccnc2)n1Cc1ccccc1	-1.0	10	-4%	-36%[inhibitor]	-4%	-2	-1.6%
O=C(Cn1cc(C(F)(F)F)cc(Cl)c1=O)NCCc1ccc(Cl)cc1Cl	-2.6	-5	9%	?	5%	-10	0.8%
CCn1nc(NC(=O)c2ccncc2)c2cc3cccc(C)c3nc21	0.3	-16	4%	-18%	7%	-23	0.4%
CC(=O)O[C@@H]1[C@H]2[C@@H](C[C@@H](C)[C@@H]3C=CC(=O)[C@@]13C)OC(=O)[C@@H]2C	-1.4	-5	3%	·	4%	-17	1.6%
Cc1cc(/C=C(/C#N)c2cccc(F)c2)c(C)n1-c1cccnc1	2.6	5	-28%	1%	-14%	-19	2.8%
CN(C)S(=O)(=O)c1cccc(NC(=S)NCc2ccco2)c1	4.5	-9	1%	27%	?	-1	·
C=CCN1N=C(/C=C/c2ccccc2)CCC1=O	-4.0	-4	5%	-1%[15.4 µM]	-3%	-20	·
O=C(c1ccc(NS(=O)(=O)c2ccc3[nH]c(=O)[nH]c3c2)cc1)N1CCN(c2ccccc2)CC1	·	-8	-2%	-8%	·	2	-6.2%
Cc1ccc(S(=O)(=O)N2CCCN(S(=O)(=O)c3ccc4ccccc4c3)CC2)cc1	-0.6	-7	8%	2%	23%	6	-0.7%
Cc1ccc(C)c(N(C(=O)Cn2nnc(-c3cccs3)n2)C(C(=O)NC2CCCC2)c2ccncc2)c1 (stereo not given)	-1.0	-7	-2%	-42%[inhibitor]	0%	·	-2.4%
O=C(CSc1n[nH]c(-c2ccncc2)n1)Nc1ccccn1	1.9	-2	-10%	26%	-11%	12	5.4%
O=C(OCCC1Oc2cccnc2NC1=O)c1ccc(Cl)cc1 (stereo not given)	-2.3	2	-17%	-3%[15.4 µM]	10%	0	·
CCc1ccc(N2CC(C(=O)OC)CC2=O)cc1 (stereo not given)	2.2	-23	3%	-2%[15.4 µM]	10%	2	-2.9%
C#CCOCCOCCOCCNc1nc(N2CCN(C(=O)[C@H](CCCCN)n3cc([C@@H](N)C(C)CC)nn3)CC2)nc(N2CCN(C(=O)[C@H](Cc3cc4ccccc4[nH]3)n3cc([C@@H](N)C(C)CC)nn3)CC2)n1 (stereo not given in full)	·	-5	6%	-33%	·	·	-4.4%
COc1ccccc1CNC(=O)C(NC(=O)C1CCCCC1)C(C)C (stereo not given)	·	-4	3%	3%	·	·	-0.4%
Cc1cc([N+](=O)[O-])nn1CCC(=O)NC1CCCCCC1	-0.6	-18	9%	-1%	-7%	-3	-3.9%
CCn1c(=O)c2ccccc2n(Cc2ccc([N+](=O)[O-])cc2)c1=O	-3.0	-3	-22%	21%	5%	-2	-1.4%
Cc1ccc(C)c(C(=O)CN2C(=O)c3ccccc3S2(=O)=O)c1	3.4	-1	-10%	13%	0%	0	1.7%
COc1ccc(Nc2ncnc3c2c(C)c(C)n3CCCN(C)C)cc1	-1.3	-7	-8%	?	-1%	11	·
O=C(c1ccc(Cl)cc1)c1ccccc1C(=O)N1CCOCC1	0.2	-2	-3%	-70%[inhibitor]	12%	-4	1.0%
O=C(Nc1ccccc1N1CCOCC1)c1cccc(Oc2ccccc2)c1	1.2	3	-20%	21%[15.4 µM]	6%	-4	-1.0%
CCN(CC)CCn1c(NC(=O)c2ccc(Cl)cc2)nc2ccccc21	0.8	-26	2%	-68%[inhibitor]	12%	-6	?
Cc1ccc(Nc2nc3c(c(=O)[nH]2)CCCC3)cc1	1.3	-8	-13%	-3%	9%	0	-0.6%
Cc1ccc(/C=C/C(=O)N2CCCN(C(=O)/C=C/c3ccc(C)cc3)CC2)cc1	-0.8	-8	-12%	-14%[15.4 µM]	13%	-12	0.7%
CSCCCNC(=S)Nc1ccc(N2CCOCC2)cc1N1CCOCC1	-4.2	0	6%	-3%	-1%	-7	·
CS(=O)(=O)N(CC(=O)O)Cc1cccc(CN(CC(=O)O)S(C)(=O)=O)c1	-12	-2	16%	·	1%	1	0.4%
Cc1cnc(C)c(N2CCN(Cc3cn(C)nc3-c3cccc(Cl)c3)CC2)n1	-2.0	-2	-5%	?	14%	-20	-26%
CCOC(=O)C1=C(C)N(c2ccccc2)C(=O)/C1=C\c1ccc(O)c(OC)c1	?	-19	7%	0%	6.3µM*	-7	-3.5%
CCc1ccc(OCC(=O)O/N=C(\N)c2cccnc2)cc1	0.6	-4	-11%	-6%[15.4 µM]	-11%	-2	0.9%
O=C1NC(c2ccncc2)Nc2sc3c(c21)CCCC3 (stereo not given)	1.3	9	6%	0%	35µM*	13	-13%
COc1cccc(N2[C@@H](CC(=O)O)c3cc(C(F)(F)F)ccc3S2(=O)=O)c1	·	-6	-5%	·	·	·	-3.8%
COCOc1ccc(-c2cc(=O)c3c(O)cc(OCOC)cc3o2)cc1	·	-14	3%	·	·	·	0.7%
COCCN=C1NC(=O)C(CC(=O)Nc2cccc(Cl)c2C)S1 (stereo not given)	-9.8	-2	-1%	-1%[15.4 µM]	-9%	-2	·
CCOC(=O)Cc1cc(=O)n2[nH]c(C)cc2n1	-0.6	-2	5%	?	-16%	1	?
CCc1n[nH]c(=S)n1N=C1CCC(C)CC1 (stereo not given)	-3.1	-9	-5%	-3%	?	13	-1.7%
COc1ccccc1-c1c(NC(=O)C(C)C)n(C)c2ccccc2c1=O	-1.2	-3	3%	-9%[15.4 µM]	1%	-4	-1.4%

Look-ups from above:
D2 PAM with `O=C(OCCC1Oc2cccnc2NC1=O)c1ccc(Cl)cc1` (stereo not given) is entered as 2
gsp antagonist with `CN(C)S(=O)(=O)c1cccc(NC(=S)NCc2ccco2)c1` is entered as 1%

Bioassay records: PubChem, National Center for Advancing Translational Sciences (NCATS)

Not a hit list (roughly 5.1% active in at least one column).
